Assay outcomes: PubChem BioAssay, Fisher Drug Discovery Resource Center
NPYLR7 ag: agonists of mosquito NPYLR7 receptor, primary screen, cell-based, Aedes aegypti, calcium fluorescence, mosquito biting behavior | Aedes aegypti neuropeptide Y-like receptor 7 (NPYLR7) | HEK293T NPYLR7/Galpha15, GCaMP6s calcium fluorescence | activation, % at 10 µM | hit rate 0.15% among 270,000 | AID 1259423, 2018; in the data active = activation above about 40%;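 also: 0% = vehicle and 100% = reference agonist at the receptor; some compounds past the cut are filed as inactive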
NPYLR7 ag max-min: further read-out of NPYLR7 ag, marked with its call; activation, %; measured here: Max-Min RFU normalised activation; some inactives read as strong as hits;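 span of the calcium signal over five minutes; 0% = vehicle and 100% = native peptide agonist; compound fluorescence can raise it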
Active calls of the source: *; & = joins results of further samples. The list is partial; the hit share may differ from the screen's.

canonical_smiles | NPYLR7 ag | NPYLR7 ag max-min
COC(=O)C(Cc1ccccc1)NC(=O)C1CC12c1ccccc1-c1ccccc12 (stereo unspecified) | -6 | -17
O=C(NC1CCN(c2ccccc2C(=O)N2CCN(C3CCCCCC3)CC2)CC1)c1cccs1 | 14 | 24
CCOC(=O)C1c2c(OC)ccc3c2C(=CC(C)(C)CO3)CN1Cc1ccc(NC(C)=O)cc1 (stereo unspecified) | 2 | 5
CC(=O)Oc1c(-c2ccc(NC(=O)c3cccc(Br)c3)cc2)c(-c2cccc(N(C)C)c2)nn1-c1ccc(F)cc1 | 7 | 12
Nc1nnc(SCc2ccc(F)cc2F)s1 | 11 | 9
Cc1ccc(C2=NC(=Cc3ccccc3OCC(=O)O)C(=O)O2)cc1 | -3 | -2
O=C(NNS(=O)(=O)c1cccc(F)c1)c1cncn1-c1ccc(F)cc1 | 1 | -2
Cc1cc(OCCC(=O)Nc2cccc(F)c2)nnc1C | 12 | 3
C=CCN(CC(=O)N1CCc2sccc2C1c1ccc(Cl)cc1)C(=O)Cc1ccccc1 (stereo unspecified) | 11 | 10
CCOc1ccccc1NC(=O)N(CCOC)CC(=O)N(Cc1ccccc1)Cc1sccc1C | 16 | 13
C[C@H](NC(=O)/C=C/c1ccc(OC(F)(F)F)cc1)C(=O)N1CCC(C(=O)N2CCCCC2)CC1 | 12 | 29
COc1c(F)cc(NS(=O)(=O)N(C)Cc2ccccc2)cc1F | -2 | -4
C=CCOC1C[C@](OCc2cccc(Cl)c2)(C(=O)NCC2CCCO2)C[C@@H](O)[C@H]1O (stereo partly specified) | 16 | 20
S=c1[nH]nc(C2CC2)n1Cc1ccco1 | -2 | 111
CCc1nn2c(ncc3c(=O)n(-c4ncn[nH]4)ccc32)c1-c1ccccc1 | 2 | 7
O=C(Nc1ccc2c(c1)OCO2)c1cccnc1Sc1ccc(Cl)cc1 | 0 | 3
Cc1ccccc1Cn1c(=O)c2c(nc3n(CC4CCCO4)c(C)cn23)n(C)c1=O (stereo unspecified) | 1 | 0
O=C1NC(=Nc2ccccc2)S/C1=C\c1ccc(-c2ccc(Br)cc2)o1 | 20 | -2
CCOC(=O)c1ccc(NC(=O)N(C)CCCc2ccccc2)cc1 | -1 | 16
O=C(Cc1c[nH]c2ccccc12)NCCCOc1cccc([N+](=O)[O-])c1 | 4 | -6
CC(C)c1noc(CNc2ccccc2C(=O)N2CCCC2CO)n1 (stereo unspecified) | 1 | -2
Cc1noc(C)c1CS(=O)C(C)C(=O)Nc1ccccc1 (stereo unspecified) | 6 | 0
COc1cc(C(=O)N2CCN(Cc3ccc4c(c3)CCO4)CC2)c([N+](=O)[O-])cc1OC | 2 | 4
CCCC1(CCC)C(=O)NC(=NCCc2ccc(OC)c(OC)c2)NC1=O | 2 | 4
O=C(NCc1cccc(C(F)(F)F)c1)c1csc(CSc2nnc(-c3ccncc3)n2-c2cccc(C(F)(F)F)c2)n1 | -8 | -1
CCn1c(=NC(=O)c2ccccc2OC)sc2ccccc21 | -8 | -11
Cc1ccc(NC(=O)NCCOc2ccc(-c3ccc(F)cc3)nn2)cc1 | 8 | 7
Cc1cc(C)cc(N2CCN(C(=O)c3ccccc3C)C(C)C2=O)c1 (stereo unspecified) | -9 | -1
COc1ccc(CN2CCN(c3nc(C)cnc3C)CC2)c(OC)c1OC | -5 | -5
Cc1c[nH]c(=O)n1-c1ccc(C(C)NC(=O)CCc2ccco2)cc1 (stereo unspecified) | -3 | 96
CS(=O)(=O)NCC1CCCCN1C(=O)NC1CCN(Cc2ccccc2)C1 (stereo unspecified) | 2 | 0
CCOC(=O)C(C)Sc1nnc(CNC(=O)c2ccc(OC)cc2)n1C1CCCCC1 (stereo unspecified) | -3 | -7
CCOc1ccc2nc(N3CCCC(C(=O)NCCOc4cccnc4)C3)nc(C)c2c1 (stereo unspecified) | 8 | 0
CN(C)CC(C)(O)c1ccc2c(c1)CN(C(=O)CCc1nc3ccc(F)cc3[nH]1)CCO2 (stereo unspecified) | 2 | 2
CCOC(=O)C(c1ccc(OC)c(OC)c1)C1C=CC(NC(=O)c2ccc(SC(F)(F)F)cc2)C1 (stereo unspecified) | 3 | -1
C=CCn1c(=O)c2c(nc3n(-c4ccccc4F)c(C)c(C)n23)n(C)c1=O | 3 | 11
Cc1nc(N2CCCCCCC2)ncc1C(C)NC(=O)CN1CCCCC1=O (stereo unspecified) | 9 | 7
CCn1c(SCC(=O)NCc2ccccc2Cl)nc2c([nH]c3ccccc32)c1=O | -1 | 0
COc1cccc(-c2ccc(SCC(=O)N3CCC(C)CC3)nn2)c1 | 5 | 2
N#CC(=NNc1ccc(I)cc1)c1nnc2n1CCCCC2 | 1 | 65
O=S(=O)(NCCOc1ccc(-c2ccccc2)nn1)c1ccc(C(F)(F)F)cc1 | -4 | -11
Cc1ccc(Nc2nc3c([nH]2)c(=O)[nH]c(=O)n3C)cc1 | -1 | -2
COc1ccc(Cc2cnc(NC(=O)c3sc4ccccc4c3Cl)s2)cc1 | -1 | -2
CCc1ccc[n+](C2=C(c3c(C)[nH]n(-c4ccc(Cl)c(Cl)c4)c3=O)C(=O)N(CC(C)C)C2=O)c1 | -4 | 1
Cc1csc(SCc2cc(=O)c(OC(=O)c3cccc(C(F)(F)F)c3)co2)n1 | -11 | -12

Part of the list above, field by field:
> CC(C)c1noc(CNc2ccccc2C(=O)N2CCCC2CO)n1 (stereo unspecified)
  NPYLR7 ag: 1; NPYLR7 ag max-min: -2

> COc1cc(C(=O)N2CCN(Cc3ccc4c(c3)CCO4)CC2)c([N+](=O)[O-])cc1OC
  NPYLR7 ag: 2; NPYLR7 ag max-min: 4

> O=C(Nc1ccc2c(c1)OCO2)c1cccnc1Sc1ccc(Cl)cc1
  NPYLR7 ag: 0; NPYLR7 ag max-min: 3

> N#CC(=NNc1ccc(I)cc1)c1nnc2n1CCCCC2
  NPYLR7 ag: 1; NPYLR7 ag max-min: 65

Later entries:
canonical_smiles | NPYLR7 ag | NPYLR7 ag max-min
COc1ccc(NC(=O)CSc2nnc(CNC(=O)c3cccs3)n2-c2cccc(C)c2)cc1 | 9 | 12
Cc1ccc(NS(=O)(=O)c2cnc3c(c2)c(=O)n(C)c(=O)n3C)c(Br)c1 | 7 | 6
CCc1nc(SCc2ccc([N+](=O)[O-])cc2)c2c(=O)n(C)c(=O)n(C)c2n1 | 7 | 10
C=CCn1c(Cc2csc(NC(=O)C3CCCN3Cc3ccccc3)n2)n[nH]c1=S (stereo unspecified) | 27 | 18
CN(Cc1ccsc1)C(=O)c1ccc(-n2ccnc2)cc1 | -4 | 1
CCOc1ccc(N2C(=O)CSC2c2cccc(NS(=O)(=O)c3ccc(OC)cc3)c2)cc1 (stereo unspecified) | 27 | 28
FC(F)Cn1ccc(NCc2cc(Br)cs2)n1 | -6 | -6
COC(CNc1nccnc1C#N)c1cccc(Cl)c1 (stereo unspecified) | 4 | 0
O=C(c1csnn1)N1CC[C@@H](c2ccc3c(c2)OCO3)[C@H](O)C1 | 3 | 3
Cc1[nH]n(-c2ccccc2)c(=O)c1C1(C(F)(F)F)NC(=O)N(C)C1=O (stereo unspecified) | 8 | -1
COCc1cnc2c(c1SCc1ccccc1)c(=O)n(C)c(=O)n2C | 7 | 11
CC(C)CNC(=O)c1cccc(Nc2c(Oc3ccccc3)cnn(C)c2=O)c1 | 18 | 16
O=C(CSc1nc2ccccc2c(=O)n1Cc1ccco1)NNC(=O)c1ccccc1 | 0 | -4
O=C(NCC1SCCc2ccccc21)c1ccncc1F (stereo unspecified) | -23 | -25
CCOc1ccc(CC(=O)Nc2c(C)nc3sccn3c2=O)cc1 | 0 | -8
CCOC(=O)N1CCC(NC(=O)C2CC23CCN(C(=O)c2cccc4ccccc24)CC3)CC1 (stereo unspecified) | -1 | -6
CCOC(=O)C1=C(C)NC(C)=C(C(=O)OCC)C1c1ccccc1/C=C/C(=O)OC(C)(C)C | -1&-6 | -7&-8
Cc1cc(N2CCN(Cc3nc(-c4cnccn4)no3)CC2)cc(C)n1 | 17 | 10
Cc1cc(NC(=O)C(=O)N2CCCN(C)C3(CCN(C)CC3)C2)no1 | 8 | 7
O=C(Cn1c(CO)cnc1SCc1ccc(C(F)(F)F)cc1)NCc1ccccc1 | 8 | 5
COc1cc(OC)cc(C2SCCN2C(=O)Nc2ccc(OC)cc2OC)c1 (stereo unspecified) | -15 | -14
COc1ccc(C(=O)Nc2c3c(nn2C(C)(C)C)CS(=O)C3)cc1OC (stereo unspecified) | -2 | -4
CC(O)CNc1ncnc2[nH]ncc12 (stereo unspecified) | 1 | -1
CC1=C(C(=O)N2CCC(N3CCCCC3)CC2)C2(CCCCC2)OC1=O | 4 | -1
CC(=O)Nc1ccc(CN2CCC2(C)C(=O)NCc2cccs2)cc1 (stereo unspecified) | 7 | 1
O=C(CCc1ccc(O)cc1)NCCN1CCCc2ccccc21 | -2 | -6
CCOc1ccc(-c2ccc(=O)n(CCNS(C)(=O)=O)n2)cc1 | 1 | 1
O=C(c1ccc(=O)[nH]c1)N1C[C@@H]2C3CCC(CC3)[C@@H]2C1 | 9 | 4
O=C(C=Cc1ccc2c(c1)OCO2)ON=Cc1ccc(Br)cc1 | 13 | 10
O=C(c1cccc(Cl)c1)N(CC(=O)N1CCc2sccc2C1c1ccc(Cl)cc1Cl)Cc1ccc(F)cc1 (stereo unspecified) | 8 | 7
C(#Cc1cccs1)c1cnc2ccccc2c1 | 4 | 1
O=C(Nc1ccc2c(c1)CN(C(=O)Nc1cccs1)CC2)C1CCCO1 (stereo unspecified) | 1 | 0
CC1(C)O[C@@H]2C[C@@](OCc3ccc(F)cc3)(C(=O)NCCN3CCCC3)CC(OCc3cccc(Cl)c3)[C@@H]2O1 (stereo partly specified) | 19 | 30
Cc1ccc(Cl)c2sc(=NC(=O)CN3C(=O)CCC3=O)n(C)c12 | -2 | 0
Cc1ccc(-n2ncc3c(C4CC4)nn(C)c(=O)c32)cc1C | 8 | 5
CC(CCc1ccccc1)Sc1nnc(N)s1 (stereo unspecified) | -1 | -1
CCN(CCS(=O)(=O)c1ccc(C)cc1)C(=O)c1cn[nH]n1 | -1 | -3
COc1ccc(C=CC(=O)c2ccc(I)cc2)cc1O | 1 | 4
COc1ccccc1NC(=O)c1c(NC(=O)CCC(=O)O)sc2c1CCC(C)C2 (stereo unspecified) | 0 | 4
Cc1cc(C)nc(N2CCN(C(=O)CSc3n[nH]c(C)n3)CC2)n1 | 0 | -4
O=C(NCCc1cccc(F)c1F)Nc1cn[nH]c1 | 7 | 3
Cc1ccc(C2CC2C(=O)NCCCOC2CCOC2)s1 (stereo unspecified) | 3 | 0
Cc1c(C(=O)NCc2cccc([N+](=O)[O-])c2)sc(=O)n1Cc1cccc(F)c1 | 12 | 7
Cc1cccc(CO[C@]2(C(=O)NCCN(C)C)CC(OCc3ccccc3C#N)[C@H](O)[C@H](O)C2)c1 (stereo partly specified) | 2 | 19
O=C1OC(c2ccccc2I)=NC1=Cc1cc2c(cc1[N+](=O)[O-])OCO2 | -8 | -17

Whole records, quoted from the list:
Shown for `Cc1cccc(CO[C@]2(C(=O)NCCN(C)C)CC(OCc3ccccc3C#N)[C@H](O)[C@H](O)C2)c1` (stereo partly specified) = NPYLR7 ag = 2; NPYLR7 ag max-min = 19
Shown for `Cc1ccc(C2CC2C(=O)NCCCOC2CCOC2)s1` (stereo unspecified) = NPYLR7 ag = 3; NPYLR7 ag max-min = 0

Additional records follow.
canonical_smiles | NPYLR7 ag | NPYLR7 ag max-min
CCCCS(=O)(=O)N1CCCn2nc(-c3nc4ccccc4[nH]3)cc2C1 | 26 | 19
Cn1ccn2ncc(C(=O)NCc3cc(-c4ccco4)on3)c12 | -5 | -5
CN(Cc1nccn1C)C(=O)Nc1cccc(Cl)c1 | -4 | -5
CCCc1cc(NCCOC)n2nc(C)c(-c3ccccc3)c2n1 | 5 | 16
O=C1C(=Cc2ccccc2)CCC1C1=NCCN1C1CC(=O)N(c2ccccc2)C1=O (stereo unspecified) | -1 | 0
C=CCn1nc(C)c(-c2cc(C(=O)O)[nH]n2)c1C | -3 | -5
CSc1ccc(C)c(C(=O)Nc2cc(C(N)=O)c(F)cc2F)c1 | 9 | 8
CC(=O)Nc1ccc(NC(=O)CSc2nc(=O)n3cc(C)ccc3n2)cc1 | 3 | 5
Cc1ncccc1C(=O)N1CC[C@@H](c2ccc3ccccc3c2)[C@H](O)C1 | -2 | 0
CCc1cc(N2CCCCC2C)nc(SCc2ccc(C(=O)NCCc3ccccn3)o2)n1 (stereo unspecified) | 8 | 15
CCCOc1ccc(S(=O)(=O)NCCCN2CCOCC2)c2ccccc12 | -4 | -6
Clc1ccc(SCc2cn3ccccc3n2)cc1 | -5 | -1
COCCn1c(=O)c2c(nc3n(CCc4ccccc4)c(C)cn23)n(C)c1=O | 6 | 4
CN(Cc1ccncn1)C(=O)c1cc(COc2c(F)cccc2F)on1 | -1 | -1
Cc1ccccc1C1(O)CCN(C(=O)CCc2n[nH]c3c2CCCC3)C1 (stereo unspecified) | 2 | 1
COCCNc1oc2c(c1-c1cc(OC)c(OC)c(OC)c1)c(=O)oc1c(C)cccc12 | -6 | -7
CCN(CC)CCNC(=O)c1cc(N)ccc1N1CCCCC1 | 6 | 3
N#Cc1ccccc1CO[C@]1(C(=O)NC2CC2)CC(OCc2ccc(F)cc2)[C@H](O)[C@H](O)C1 (stereo partly specified) | 3 | 10
COc1ccc(Cl)cc1-n1c(C)cn2c3c(=O)[nH]c(=O)n(C)c3nc12 | -1 | 6
O=C(Cn1cnc([N+](=O)[O-])n1)Nc1ccc(OC(F)(F)F)cc1 | -16 | -22
O=C(c1n[nH]c(=O)[nH]1)N1CCc2c(Cl)cccc21 | 7 | -7
CN(Cc1n[nH]c2c1CCCC2)C(=O)c1ccccc1C1CCNC1 (stereo unspecified) | -3 | -5
CCOc1ccc(S(=O)(=O)N2CCN(CCO)CC2)cc1 | 0 | -2
O=c1cnnc(Nc2ccc(Br)cc2)[nH]1 | 1 | -3
